Screening results: PubChem BioAssay, National Center for Advancing Translational Sciences (NCATS)
Lassa entry inh = blocks Lassa virus binding to or entry into cells; AID 540256; Lassa virus pseudotype entry inhibition, cell reporter; control for the full effect not named in the record; hit rate 1.2% among 300,000; Potency, µM (top dose mostly 37.9 µM), for the others: top-dose activity change, negative = inhibition, hits mostly inhibitors; active means well fitted inhibition curve with a large enough effect; inconclusive means small, poorly fitted or top-dose-only effect, or effect the other way; inactive means flat fitted curve, though single readings scatter; tested in HEK293 cells; also: % is scaled to controls: 0 for no effect and ±100 for the full control effect; nearly all actives have a fitted effect of over 50% in size; luciferase read-out
RE007 growth inh = less growth of the S. pombe RE007 Vpr strain; S. pombe RE007 Vpr strain, BacTiter-Glo ATP luminescence, 24 h; control for the full effect not named in the record; Potency, µM (doses to about 92.2 µM), for inactives: at the top dose activity change, negative = less growth; hit rate 0.21% among 360,000; AID 651644; active = well fitted falling curve with a large enough effect; inconclusive = small, poorly fitted or top-dose-only effect; inactive = no such curve, though single readings can be large or run the other way;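 also: % is scaled to controls: 0 for no effect and ±100 for the full control effect; nearly all actives have a fitted effect of over 50% in size; the assay follows cell death caused by Vpr and the record does not say whether a fall means rescue or toxicity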
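Fission yeast strain RE007, carrying one chromosomally integrated HIV-1 vpr copy, was seeded at OD 0.01 in PMG+AL medium with 23 nL pinned compound. After 24 h at 30 °C and 99% humidity, viability was read by BacTiter-Glo luminescence.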
Marburg entry inh = inhibitors of Marburg virus binding or cell entry | Marburg virus pseudotyped entry inhibition, cell reporter; control for the full effect not named in the record; about a third of the inactives were read at about 46 µM | Potency, µM (top dose mostly 37.8 µM), without a hit: top-dose activity change, negative = inhibition, usual class: inhibitors | hit rate 1.8% among 300,000 | AID 540276; active = well fitted inhibition curve with a large enough effect; inconclusive = small, poorly fitted or top-dose-only effect, or effect the other way; inactive = flat fitted curve, though single readings scatter; tested in HEK293 cells; about a fifth of its hits are not listed in these tables; also: % is scaled to controls: 0 for no effect and ±100 for the full control effect; luciferase read-out
NS1 function inh = influenza NS1 inhibition; S. cerevisiae slowed by influenza A NS1, growth recovery by OD600; hit rate 0.4% among 270,000; Potency, µM (titrated, usually from 46.1 µM), without a hit: at the highest dose activity, positive = more growth; AID 2326; active means well fitted rising curve with a large enough effect; inconclusive means small, poorly fitted or top-dose-only effect; inactive means no such curve, though single readings can be large or run the other way; also: nearly all actives have a fitted effect of over 50% in size
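Recovery from NS1-induced slow growth read by OD600 in budding yeast switched to galactose assay medium (pH 6.0, -URA) at 1:100 dilution. Compound 23 nl per well; the matching strain lacking NS1 serves as control.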
Cruzain Triton = inhibitors of Trypanosoma cruzi cruzain with detergent. P25779. purified cruzain, Z-FR-AMC fluorescence, 0.01% Triton. Potency, µM, without a hit: max response, negative = inhibition, most hits filed as inhibitors. hit rate 0.43% among 200,000;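 also: plate controls were neutral wells for no effect and buffer without enzyme for full effect; nearly all actives have a fitted effect of over 40% in size; top concentration of the series not given in the record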
Target sequence (P25779 123-467 limits assumed): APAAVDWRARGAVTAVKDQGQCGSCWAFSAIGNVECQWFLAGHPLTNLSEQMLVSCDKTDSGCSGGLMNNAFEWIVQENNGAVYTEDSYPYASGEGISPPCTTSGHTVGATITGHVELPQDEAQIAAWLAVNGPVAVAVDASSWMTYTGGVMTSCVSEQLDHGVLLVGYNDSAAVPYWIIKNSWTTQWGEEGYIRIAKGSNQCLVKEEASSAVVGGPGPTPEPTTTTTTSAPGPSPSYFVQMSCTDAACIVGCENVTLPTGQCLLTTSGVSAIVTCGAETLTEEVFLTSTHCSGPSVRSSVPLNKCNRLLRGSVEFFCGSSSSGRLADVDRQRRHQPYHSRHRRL
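In this qHTS format, compounds are incubated with 1.5 nM cruzain for 15 min at room temperature before 2 uM Z-FR-AMC is added. Release of AMC is followed at 360/450 nm, and progress is taken as the 60 s fluorescence difference.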
SARS PLpro yeast = blocks SARS-CoV papain-like protease in a yeast assay | S. cerevisiae expressing SARS-CoV PLpro, growth rescue; control for the full effect not named in the record | Potency, µM (doses to about 32.9 µM), for inactives: top-dose activity, positive = growth rescue | hit rate 0.19% among 330,000 | AID 485353; active means well fitted rising curve with a large enough effect; inconclusive means small, poorly fitted or top-dose-only effect; inactive means no such curve, though single readings can be large or run the other way; also: 0% is about no effect; nearly all actives have a fitted effect of over 55% in size; growth read by luminescence after 48 h
Cruzain noTriton = inhibitors of Trypanosoma cruzi cruzain without detergent. purified cruzain, Z-FR-AMC fluorescence, no detergent. P25779. hit rate 2.3% among 200,000. Potency, µM, for inactives: max response, negative = inhibition, actives largely listed as inhibitors;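 also: plate controls were enzyme without inhibitor for no effect and buffer without enzyme for full effect; nearly all actives have a fitted effect of over 40% in size; top concentration of the series not given in the record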
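Purified cruzain at 1.5 nM, pre-incubated 15 min with compound at room temperature in 100 mM sodium acetate pH 5.5, 5 mM DTT, 0.00005% Triton X-100. Reaction started with 2 uM Z-FR-AMC; AMC fluorescence increase over 60 s gives rate.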
2A StopGo = FMDV 2A StopGo reporter, luciferase signal; Potency, µM (titrated, usually from 57.9 µM), for inactives: at the highest dose signal change, negative = less light; human cells with a luciferase reporter of 2A StopGo recoding; control for the full effect not named in the record; AID 1159524; hit rate 1.2% among 410,000; active = well fitted falling curve with a large enough effect; inconclusive = small, poorly fitted or top-dose-only effect; inactive = no such curve, though single readings can be large or run the other way; tested in HEK293T cells; also: % is scaled to controls: 0 for no effect and ±100 for the full control effect; nearly all actives have a fitted effect of over 45% in size; luciferase light after 4 h
The depositor's hits bear a star; ? = inconclusive; nt = not tested or not shown; [ ] = dose if it differs, or a comment. Unless noted, calls follow the shape of the dose curve; as a rule, active = well fitted curve in the direction sought with a large enough effect; inconclusive = small, poorly fitted or top-dose-only effect, or another doubt; inactive = no such curve, though single readings can be large; an effect the other way counts as inactive or inconclusive. Potency is read from the fitted curve at half-maximal effect.

SMILES	Lassa entry inh	RE007 growth inh	Marburg entry inh	NS1 function inh	Cruzain Triton	SARS PLpro yeast	Cruzain noTriton	2A StopGo
CCc1c(O)nc(SC2CC(=O)N(c3ccccc3)C2=O)[nH]c1=O (configuration not stated)	6.6%	-19.0%	0.8%	8.9%	4.2%	-9.7%	6.7%	-0.4%
COCCN(C(=O)c1ccco1)c1nnc(-c2ccc(OC)c(OC)c2)s1	8.5%	3.6%	-10.2%	3.3%	-3.3%	18.1%	?	16.1%
CCOC(=O)c1sc(N/N=C/c2ccccc2)nc1C	?	-12.5%	?	-5.2%	-6.3%	-8.4%	?	40.9%[activator]
COc1ccc(CC(=O)NC2CC(=O)N(c3ccc(C)c(C)c3)C2)cc1OC (configuration not stated)	-4.6%[46.1 µM]	nt	nt	nt	3.8%	nt	9.0%	-2.0%
CCN(CC)C(=O)CSc1nc2ccccc2c(=O)n1-c1ccccc1OC	2.2%	-1.3%	-3.2%	35.5µM*	-1.9%	-5.3%	6.4%	?
CCCc1nc2ccccc2n1Cc1ccccc1OC	?	22.1%	?	nt	nt	3.2%	nt	?
COc1ccc(NC2c3ccccc3C(=O)N2c2ccccn2)cc1Cl (configuration not stated)	nt	0.3%	nt	1.2%	0.6%	25.3%	-24.5%	-21.8%
CC(NCc1ccc(S(N)(=O)=O)cc1)C(=O)NCc1ccccc1 (configuration not stated)	nt	-6.8%	nt	3.7%	nt	0.8%	nt	-24.1%
CCOc1ccc(CN2C(=O)c3ccccc3C2=O)cc1C(=O)Nc1nnc(SCC)s1	6.3%	6.0%	12.9%	22.3%	-5.4%	-1.4%	-1.8%	-16.4%
Cc1cccc(NC(=O)C(=O)NCc2ccccn2)c1	?	2.5%	18.6%	-5.4%	-1.0%	-2.9%	-2.8%	nt
CC1CCN(C(=O)CSc2nnc(CNC(=O)c3ccco3)o2)CC1	-11.1%	-0.4%	6.8%[46.1 µM]	-5.5%	3.9%	10.5%	-1.1%	16.8%
CSc1sc(C(=O)N(C)C)cc1S(=O)(=O)C(C)C	nt	10.4%	nt	-0.5%	nt	0.2%	nt	-9.7%
CC(C)(C)C(=O)NCc1ccc(C(=O)CSc2nnc(-c3ccncc3)n2C2CC2)s1	-5.4%	-15.8%	2.2%	nt	nt	1.4%	nt	?
CCOC(=O)C1(Cc2cccc(F)c2)CCN(C(=O)c2cnc(C)cn2)CC1	22.7%[46.1 µM]	5.5%	-1.9%[46.1 µM]	-0.1%	nt	1.6%	nt	-17.8%
COc1ccc(-n2c(SCc3nc(-c4ccc(C)cc4)no3)nnc2-c2ccncc2)cc1	-13.2%[46.1 µM]	nt	?	nt	-3.4%	nt	1.9%	0.0%
Cc1ncc([N+](=O)[O-])n1CC(=O)Nc1ccc(F)cc1	3.0%	-3.1%	0.2%	6.9%	nt	1.7%	nt	21.1%
O=C(NCCc1ccc(Cl)cc1)c1ccc(Cn2c(=O)c3cccn3c3cccnc32)cc1	4.7%[46.1 µM]	nt	nt	nt	0.1%	nt	-13.1%	-9.7%
CCOc1ccc(NC(=S)N(C)C)cc1	-1.1%	12.7%	14.3%	-1.7%	nt	-0.7%	nt	1.4%
COC(=O)c1ccc(NC(=O)CSc2nc3ncccc3[nH]2)cc1	5.0%	17.7%	?	-0.7%	nt	0.4%	nt	-17.6%
CC(=O)c1c(COC(=O)c2ccc(F)cc2)nc2ccccc2[n+]1[O-]	8.9%	4.2%	-5.0%[46.1 µM]	0.1%	nt	0.8%	nt	-30.2%
COC(=O)C1=C(C)N(C)C(=S)N(C)C1c1ccc(OC)cc1 (configuration not stated)	-0.5%	4.0%	?	2.0%	nt	-1.6%	nt	-17.7%
CCNC(=O)c1ccc(CSc2nc3ccccc3s2)cc1	?	13.2%	-18.3%[46.1 µM]	7.1%	nt	-8.7%	nt	-8.3%
O=C(Nc1ccc(C(=O)O)cc1)/C(=C\c1ccco1)NC(=O)c1ccccc1Cl	4.4%	6.9%	12.2%[46.1 µM]	15.6%	nt	28.5%	nt	-5.7%
O=C(Cn1nc(C(F)(F)F)c2c1CCC2)Nc1ccccc1C(F)(F)F	1.3%	3.0%	-22.3%[46.1 µM]	-4.1%	-1.2%	3.3%	-11.0%	-1.6%
CCC1CCC(C(=O)NC(C(=O)NCCN(CC(C)C)CC(C)C)C(C)C)CC1 (configuration not stated)	-7.4%[46.1 µM]	nt	26.5%[46.1 µM]	nt	-4.9%	nt	-5.8%	-9.4%
CCOc1cc(C(=O)NC)cc(Br)c1OC	18.2%[46.1 µM]	-17.6%	?	-4.5%	nt	-0.8%	nt	-8.3%
COCC(=O)N(C)c1nnc(-c2ccccn2)s1	?	14.5%	-14.8%	5.9%	8.8%	-8.2%	2.0%	64.0%[activator]
CCN(C(=O)C1CCC(CNS(=O)(=O)c2cccc3nsnc23)CC1)c1ccc(C)c(C)c1 (configuration not stated)	-29.2%[46.1 µM]	nt	?	nt	3.7%	nt	-1.3%	?
CN(C(=O)c1cccnc1)c1nnc(-c2ccccn2)s1	16.1%	8.1%	?	-4.3%	-3.5%	10.4%	-3.2%	53.3%[activator]
CCC(=O)NCCCCCCCCCNC(=O)CC	?	18.4%	-5.9%	11.5%	0.1%	-14.0%	12.5%	0.0%
COc1ccccc1-c1cc(C(=O)NCCN2CCOCC2)no1	1.2%	-0.2%	10.0%	-10.9%	-4.2%	3.0%	-8.0%	0.0%
CCN1CCN(c2ccc(S(=O)(=O)N3CCCC3)cn2)CC1	0.1%[46.1 µM]	0.6%	-2.6%[46.1 µM]	nt	nt	-0.5%	nt	25.4%
CC1CCc2cc(F)ccc2N1S(=O)(=O)c1ccc(F)cc1 (configuration not stated)	-0.8%[46.1 µM]	-2.3%	-29.0%[46.1 µM]	-17.6%	nt	8.91µM*	nt	3.6%
Cn1cc(C(=O)N/N=C/C=C/c2ccccc2)ccc1=O	13.8%	10.3%	-3.2%	-4.3%	-9.4%	-14.0%	-6.1%	12.6%
O=C(NCC(=O)N1CCN(c2ncccn2)CC1)c1cccs1	?	-1.2%	?	0.6%	-0.3%	0.1%	?	22.3%
CCOC(=O)C1CCCN(C(=O)c2ccc(NC(=O)CC3SC(N4CCCC4)=NC3=O)cc2)C1 (configuration not stated)	26.2%	3.9%	-5.6%[46.1 µM]	nt	nt	-4.9%	nt	7.9%
Cn1c(=O)c2c(nc(CN3CCN(c4ccccc4F)CC3)n2Cc2ccc(F)cc2)n(C)c1=O	?	nt	?	nt	-7.6%	nt	?	-21.9%
Cc1ccsc1CCN1C(=O)N(c2ccccc2)C(=O)C1CC(=O)Nc1ccc(Cl)cc1 (configuration not stated)	-29.1%[46.1 µM]	nt	?	nt	-6.5%	nt	-8.3%	12.7%
CCOC(=O)C1=C(C)C(c2cccc(Oc3ccccc3)c2)NC(=S)N1 (configuration not stated)	8.91µM*	8.2%	?	15.9%	-4.2%	0.9%	-28.0%	28.2µM*
O=C(NCCCN1CCOCC1)/C(=C/c1ccc(F)cc1)NC(=O)c1ccccc1	11.1%	14.1%	17.5%[46.1 µM]	nt	nt	-0.7%	nt	1.2%

An excerpt from above with just Cruzain Triton and Marburg entry inh:
mol,Cruzain Triton,Marburg entry inh
CCC(=O)NCCCCCCCCCNC(=O)CC,0.1%,-5.9%
CCOC(=O)C1(Cc2cccc(F)c2)CCN(C(=O)c2cnc(C)cn2)CC1,nt,-1.9%[46.1 µM]
CCN(CC)C(=O)CSc1nc2ccccc2c(=O)n1-c1ccccc1OC,-1.9%,-3.2%
CCc1c(O)nc(SC2CC(=O)N(c3ccccc3)C2=O)[nH]c1=O (configuration not stated),4.2%,0.8%

(continued)
SMILES	Lassa entry inh	RE007 growth inh	Marburg entry inh	NS1 function inh	Cruzain Triton	SARS PLpro yeast	Cruzain noTriton	2A StopGo
CN(C)c1nccc(NCc2ccccc2)c1C#N	16.8%	-17.4%	5.8%[46.1 µM]	nt	nt	-2.8%	nt	15.6%
C[n+]1c2ccccc2nc2ccc(NCCO)cc21	?	3.55µM*	?	-0.8%	nt	0.5%	nt	?
CCOc1ccc(CC(=O)NCC(c2cccs2)S(=O)(=O)c2ccc(F)c(C)c2)cc1 (configuration not stated)	?	nt	nt	nt	-5.7%	nt	-0.2%	12.4%
Cc1cc(NC(=O)C2CCCCC2C(=O)O)no1 (configuration not stated)	27.1%	15.7%	7.6%	6.2%	0.1%	3.5%	-9.2%	-2.1%
CCc1ccc(CNC(=O)C2CCN(c3nc4ccccc4nc3C(F)(F)F)CC2)cc1	11.1%[46.1 µM]	nt	nt	nt	3.8%	nt	-15.2%	-2.1%
CSc1ncccc1C(=O)OCC(=O)NC12CC3CC(CC(C3)C1)C2	-3.9%	1.6%	2.6%	nt	nt	-9.3%	nt	-21.9%
COc1cc(OC)c(NC(=O)c2ccc(F)cc2)cc1Cl	15.8%	1.3%	-19.6%[46.1 µM]	0.1%	nt	0.0%	nt	12.3%
C/C(=N\NC(=O)C1CC1)c1ccc(N2CCOCC2)cc1	4.7%[46.1 µM]	-2.9%	?	nt	nt	-1.2%	nt	7.1%
C[n+]1c2n(c3ccccc31)N=C(c1ccc(-c3ccccc3)cc1)CS2	nt	-8.7%	nt	-64.0%	nt	-1.9%	nt	?
COCCNS(=O)(=O)c1ccc(OCC(=O)OC)c(Cl)c1	-19.0%	3.3%	4.4%	5.4%	1.1%	-2.7%	3.4%	-0.1%
CN(C)S(=O)(=O)c1ccc(N2CCCC2)c(C(=O)N2CCN(S(=O)(=O)c3cccc(F)c3)CC2)c1	?	13.0%	-25.6%[46.1 µM]	nt	nt	-1.3%	nt	-8.4%
